# 2A StopGo = High Throughput Screening for Foot and Mouth Disease Virus Antivirals; human cells with a luciferase reporter of 2A StopGo recoding; control for the full effect not named in the record; Potency, µM (highest dose often 57.9 µM), for inactives: at the top dose signal change, negative = less light; hit rate 1.2% among 410,000; AID 1159524, 2015; active = well fitted falling curve with a large enough effect; inconclusive = small, poorly fitted or top-dose-only effect; inactive = no such curve, though single readings can be large or run the other way; tested in HEK293T cells; also: % is scaled to controls: 0 for no effect and ±100 for the full control effect; nearly all actives have a fitted effect of over 45% in size; luciferase light after 4 h
# SARS PLpro yeast = qHTS of Yeast-based Assay for SARS-CoV PLP; S. cerevisiae expressing SARS-CoV PLpro, growth rescue; control for the full effect not named in the record; Potency, µM (highest dose often 32.9 µM), without a hit: at the top dose activity, positive = growth rescue; hit rate 0.19% among 330,000; also: 0% is about no effect; nearly all actives have a fitted effect of over 55% in size; growth read by luminescence after 48 h
# Lassa entry inh = qHTS for Inhibitors of binding or entry into cells for Lassa Virus | Lassa virus pseudotype entry inhibition, cell reporter; control for the full effect not named in the record | Potency, µM (doses to about 37.9 µM), inactives show top-dose activity change, negative = inhibition, usual class: inhibitors | hit rate 1.2% among 300,000 | AID 540256, 2011; active means well fitted inhibition curve with a large enough effect; inconclusive means small, poorly fitted or top-dose-only effect, or effect the other way; inactive means flat fitted curve, though single readings scatter; tested in HEK293 cells; also: % is scaled to controls: 0 for no effect and ±100 for the full control effect; nearly all actives have a fitted effect of over 50% in size; luciferase read-out
# NS1 function inh = qHTS Assay for Inhibitors of Influenza NS1 Protein Function; S. cerevisiae slowed by influenza A NS1, growth recovery by OD600; Potency, µM (titrated, usually from 46.1 µM), without a hit: at the top dose activity, positive = more growth; hit rate 0.4% among 270,000; also: actives are rising curves; nearly all actives have a fitted effect of over 50% in size
#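 OD600 was taken as the measure of yeast growth restored by compound in an NS1-expressing S. cerevisiae strain. Cells had been washed out of glucose medium and diluted 1:100 into galactose -URA medium, pH 6.0.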
# RE007 growth inh = qHTS Assay for Inhibitors of the HIV-1 protein Vpr; Potency, µM (series often up to 92.2 µM), without a hit: at the highest dose activity change, negative = less growth; S. pombe RE007 Vpr strain, BacTiter-Glo ATP luminescence, 24 h; control for the full effect not named in the record; AID 651644, 2012; hit rate 0.21% among 360,000; active = well fitted falling curve with a large enough effect; inconclusive = small, poorly fitted or top-dose-only effect; inactive = no such curve, though single readings can be large or run the other way;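 also: % is scaled to controls: 0 for no effect and ±100 for the full control effect; nearly all actives have a fitted effect of over 50% in size; the assay follows cell death caused by Vpr and the record does not say whether a fall means rescue or toxicity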
#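 Fission yeast RE007 carrying one integrated HIV-1 vpr copy, seeded at OD 0.01 in PMG+AL medium with 23 nL pinned compound. Grown 24 h at 30 degrees; viability read by BacTiter-Glo luminescence after 5 min.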
# MARV entry inh = qHTS for inhibitors of binding or entry into cells for Marburg Virus; Potency, µM (titrated, usually from 37.8 µM), for inactives: at the highest dose activity change, negative = inhibition, actives largely listed as inhibitors; Marburg virus pseudotyped entry inhibition, cell reporter; control for the full effect not named in the record; about a third of the inactives were read at about 46 µM; AID 540276, 2011; hit rate 1.8% among 300,000; active = well fitted inhibition curve with a large enough effect; inconclusive = small, poorly fitted or top-dose-only effect, or effect the other way; inactive = flat fitted curve, though single readings scatter; tested in HEK293 cells; about a fifth of its hits are not listed in these tables; also: % is scaled to controls: 0 for no effect and ±100 for the full control effect; luciferase read-out
# Cruzain noTriton = qHTS Assay for Promiscuous and Specific Inhibitors of Cruzain (without detergent); Cruzipain (Trypanosoma cruzi), P25779; purified cruzain, Z-FR-AMC fluorescence, no detergent; Potency, µM, without a hit: max response, negative = inhibition, actives largely listed as inhibitors; hit rate 2.3% among 200,000; AID 1476, 2009; active = well fitted curve in the direction sought with a large enough effect; inconclusive = small, poorly fitted or top-dose-only effect, or another doubt; inactive = no such curve, though single readings can be large; an effect the other way counts as inactive or inconclusive;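 also: plate controls were enzyme without inhibitor for no effect and buffer without enzyme for full effect; nearly all actives have a fitted effect of over 40% in size; top concentration of the series not given in the record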
# Target sequence (P25779 123-467 limits assumed): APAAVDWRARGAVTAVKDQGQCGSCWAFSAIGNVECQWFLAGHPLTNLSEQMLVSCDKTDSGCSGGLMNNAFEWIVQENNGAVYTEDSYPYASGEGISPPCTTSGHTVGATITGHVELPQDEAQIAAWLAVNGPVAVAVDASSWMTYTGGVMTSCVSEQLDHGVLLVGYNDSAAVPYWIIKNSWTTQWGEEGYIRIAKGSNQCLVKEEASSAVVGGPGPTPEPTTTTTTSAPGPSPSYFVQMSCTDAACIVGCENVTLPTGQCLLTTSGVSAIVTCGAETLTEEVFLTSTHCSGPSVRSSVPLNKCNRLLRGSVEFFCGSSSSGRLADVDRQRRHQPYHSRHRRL
#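 Detergent-free condition (0.00005% Triton X-100) in acetate buffer pH 5.5 with DTT. 1.5 nM enzyme and compound were pre-mixed 15 min, then 2 uM Z-FR-AMC substrate added; reaction progress from fluorescence change between first and third reads (60 s).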
# Cruzain inh Det = qHTS Assay for Promiscuous and Specific Inhibitors of Cruzain (with detergent) | Cruzipain (Trypanosoma cruzi), P25779 | purified cruzain, Z-FR-AMC fluorescence, 0.01% Triton | Potency, µM, for the others: max response, negative = inhibition, actives largely listed as inhibitors | hit rate 0.43% among 200,000; active = well fitted curve in the direction sought with a large enough effect; inconclusive = small, poorly fitted or top-dose-only effect, or another doubt; inactive = no such curve, though single readings can be large; an effect the other way counts as inactive or inconclusive;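 also: plate controls were neutral wells for no effect and buffer without enzyme for full effect; nearly all actives have a fitted effect of over 40% in size; top concentration of the series not given in the record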
#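 Cysteine protease activity tested under reducing, mildly acidic conditions (100 mM sodium acetate pH 5.5, 5 mM DTT) plus 0.01% Triton X-100. Cruzain 1.5 nM; substrate Z-FR-AMC 2 uM; 15 min compound preincubation at room temperature.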
# * hit, by the source's call; ? = inconclusive; · = no result given; & = joins results of further samples; [ ] = remark or other dose. Unless noted, calls follow the shape of the dose curve; as a rule, active means well fitted rising curve with a large enough effect; inconclusive means small, poorly fitted or top-dose-only effect; inactive means no such curve, though single readings can be large or run the other way. Potency is read from the fitted curve at half-maximal effect.
smiles | 2A StopGo | SARS PLpro yeast | Lassa entry inh | NS1 function inh | RE007 growth inh | MARV entry inh | Cruzain noTriton | Cruzain inh Det
Cc1cccc(NC(=O)c2cc([N+](=O)[O-])ccc2NCC2CCCO2)n1 (configuration not stated) | ? | -3% | · | · | 5% | ? | · | ·
CC(=O)Nc1ccc(NC(=O)C(NS(=O)(=O)c2cccc3nsnc23)C(C)C)cc1 (configuration not stated) | 1% | 4% | 9%[46.1 µM] | -13% | -13% | -2%[46.1 µM] | · | ·
CCOC(=O)c1c(NC(=O)CN2C(=O)NC3(CCCCC3C)C2=O)sc(C)c1CC (configuration not stated) | -1% | 0% | ? | · | 1% | ? | · | ·
CCOC(=O)C1=C(C)N(CCCCCC(=O)O)C(=O)NC1c1ccc(Cl)cc1 (configuration not stated) | -12% | 0% | · | 5% | 3% | · | · | ·
COc1ccc(CN(C)Cc2nc3scc(-c4ccccc4)c3c(=O)[nH]2)cc1OC | ? | 14% | -19% | 7% | -8% | ? | 11% | -2.9%
COc1ccc(CNC(=O)COC(=O)c2ccc(S(=O)(=O)N3CCCCC3)cc2)cc1 | -24% | 5% | 5% | · | -23% | 0% | · | ·
CCC1CCCCN1CCNC(=O)CNS(=O)(=O)c1ccc2nc(C)sc2c1 (configuration not stated) | -1% | 3% | 8% | 3% | -5% | 10% | 7% | 0.0%
Cc1ccc(-n2ncc3c(=O)n(CC(=O)NC4CCCCC4)cnc32)cc1 | -11% | 9% | 8% | -2% | -8% | 14% | ? | 8.0%
CCC(=O)C1=C(c2ccc(Cl)cc2)N(C(=O)CC)n2c(C)nnc2S1 | 0% | · | 0%[46.1 µM] | · | · | · | 15% | -2.8%
CN(C)CCCNC(=O)c1cc(Br)ccc1O | 6% | -1% | 4% | 2% | 5% | 12%[46.1 µM] | · | ·
COCCCNCC(O)C(F)(F)F (configuration not stated) | -1% | 14% | -2% | 7% | -6% | 0% | · | ·
O=C(NCc1csc2ccccc12)Nc1cc(Cl)cc(Cl)c1 | ? | -1% | -19% | 6% | -1% | ? | · | ·
O=C(COC(=O)Cc1ccccc1)NCCNC(=O)COC(=O)Cc1ccccc1 | -12% | 2% | -2% | · | -3% | 1%[46.1 µM] | · | ·
COc1ccc(C)cc1S(=O)(=O)Nc1cc(Cl)ccc1Cl | 16% | ? | 6% | 4% | 7% | -7%[46.1 µM] | -7% | -8.2%
O=C(Nc1nc2ccc(S(=O)(=O)N3CCCC3)cc2s1)c1ccco1 | 77%[activator] | 8% | 3% | 17% | 13% | ? | -11% | -1.8%
O=C(OCC(=O)N1CCCC1=O)c1cc2ccccc2o1 | -6% | 5% | -5% | · | ? | 0%[46.1 µM] | · | ·
CCOc1ccc(CCNC(=O)C2CCCN(c3ncnc4c3nc3n4CCCCC3)C2)cc1 (configuration not stated) | -24% | 1% | -19%[46.1 µM] | -10% | -16% | ? | · | ·
COc1cccc(C2c3cc4c(cc3OC(C)(N3CCCC3)C2C)OCO4)c1O (configuration not stated) | -18% | · | -21%[46.1 µM] | · | 1% | ? | · | ·
COCCCNC(=O)CC1C[C@H](C(=O)N2CCCCC2)[C@@]2(C)c3[nH]c4ccc(OC)cc4c3CCN2C1=O (some centres not stated) | -8% | 0% | · | · | -7% | 3% | · | ·
O=C(Nc1ccc2c(c1)OCCO2)c1cc(-n2cnnc2)ccc1Cl | -22% | 0% | -3% | 0% | 9% | 5%[46.1 µM] | -10% | 0.0%
Nc1nc(N)c(N=O)c(OCC2CCCCC2)n1 | -12% | -6% | ? | -9% | 2%[18.4 µM] | ? | · | ·
Cc1cccc(Nc2nc(N)c([N+](=O)[O-])c(N3CCN(C)CC3)n2)c1 | -26% | 12% | 2% | 0% | 1% | ? | -7% | -4.6%
CC(=O)Nc1cc2c(cc1NC(=O)Cn1nc(-c3ccc(F)cc3)ccc1=O)OCCO2 | -6% | 1% | · | -19% | 2% | 1%[46.1 µM] | · | ·
O=C1CC(c2ccc(Cl)cc2)n2nc(N3C(=O)CCC3=O)nc2N1 (configuration not stated) | · | 2% | ? | -8% | 11% | 24% | -5% | 3.5%
CC(C)(C)c1ccc(C(=O)O/N=C(\N)c2ccccn2)cc1 | 0.1µM* | -11% | ? | -51% | -2% | ? | · | ·
O=C(NCc1ccco1)c1cc(NS(=O)(=O)c2cccc([N+](=O)[O-])c2)ccc1O | 17% | -3% | -12% | · | 1% | 5%[14.2 µM] | · | ·
COc1ccc(CNc2nc3ccccc3s2)cc1OC | -15% | -8% | -20%[46.1 µM] | -14% | -22% | ? | · | ·
CCN(CC)S(=O)(=O)c1ccc(C(=O)NCc2ccc(C)cc2)cc1 | -3% | -6% | 18µM* | -9% | 14% | -26%[46.1 µM] | 1% | -0.5%
CCOC(=O)c1c(C)[nH]c(C)c1S(=O)(=O)N1CCC(C(=O)Nc2cc(Cl)ccc2OC)CC1 | 60%[activator] | · | -15%[46.1 µM] | · | · | · | ? | -2.1%
COc1cc(OC)c(C(=O)OCC(=O)N2CCOCC2)cc1OC | 10% | 3% | 8%[46.1 µM] | 6% | 7% | 14%[46.1 µM] | · | ·

# The closing two records of the section before open the next one:
smiles | 2A StopGo | SARS PLpro yeast | Lassa entry inh | NS1 function inh | RE007 growth inh | MARV entry inh | Cruzain noTriton | Cruzain inh Det
CCOC(=O)c1c(C)[nH]c(C)c1S(=O)(=O)N1CCC(C(=O)Nc2cc(Cl)ccc2OC)CC1 | 60%[activator] | · | -15%[46.1 µM] | · | · | · | ? | -2.1%
COc1cc(OC)c(C(=O)OCC(=O)N2CCOCC2)cc1OC | 10% | 3% | 8%[46.1 µM] | 6% | 7% | 14%[46.1 µM] | · | ·
Cc1ccc(CNC(=O)[C@H](Cc2ccccc2)NC(=O)C2CCNCC2)cc1 | 33%[activator] | 2% | -3%[46.1 µM] | -14% | 8% | ? | · | ·
Cc1cc(NC(=O)CN(C)S(=O)(=O)c2ccc(-c3ccc(=O)[nH]n3)s2)ccc1Br | ? | -4% | · | 8% | 24% | · | · | ·
CSCC[C@H](NC(=O)NCc1cccs1)C(=O)O | 0% | -2% | -16% | 0% | 11% | -3% | -7% | 12%
Cc1ccc(S(=O)(=O)N2CCN(C3CC4CCC3C4)CC2)cc1 (configuration not stated) | -6% | 0% | -6%[46.1 µM] | -1% | 1% | 8%[46.1 µM] | · | ·
COc1ccc(-c2oc3ccc(-c4cc(OC)c(OC)c(OC)c4)cc3c2-c2ccc(OC)nc2)cc1 | -22% | -3% | · | 18% | 2% | · | · | ·
CCOC(=O)N1CCN(Cc2ccc3ccccc3c2)CC1 | -14% | 10% | · | -2% | -11% | · | · | ·
COC(=O)/C(C#N)=C/c1ccc(C)o1 | 12% | 1% | 19% | 6% | 6% | ? | · | ·
COc1ccc(NS(=O)(=O)c2cccc(C(=O)NCC3(N4CCCCC4)CCCCC3)c2)cc1 | 26% | 0% | 19% | · | -8% | ? | · | ·
Cc1ccc(C)c(N2C(=N)S/C(=C\c3ccc(-c4ccccc4C(=O)O)o3)C2=O)c1 | 16% | 13% | 2% | · | 2% | 13%[46.1 µM] | · | ·
FC(F)(F)c1cnc(C(c2ccccc2)c2ncn[nH]2)c(Cl)c1 (configuration not stated) | -12% | 0% | 8%[46.1 µM] | -3% | -5% | -20%[46.1 µM] | · | ·
O=C(NCc1ccccc1)c1ccc2nccnc2c1 | · | 6% | 11% | -53% | 12% | -2% | 10% | 1.3%
COc1cccc(NC(=S)N2CCN(c3ccccn3)CC2)c1 | 22% | -16% | 14% | -2% | -17% | 4% | -3% | 0.4%
CN(C)CC/C=C1/c2ccccc2CS(=O)(=O)c2ccccc21 | 11% | · | 26%[46.1 µM] | · | -16% | -2%[46.1 µM] | · | ·
Cc1cc(C=O)c(C)n1-c1ccc(Oc2ccc([N+](=O)[O-])cn2)cc1 | 4% | -6% | ? | 15% | 2% | ? | -10% | -4.1%
S=C(NCc1ccccn1)Nc1ccccc1 | 5% | 6% | 16% | 15% | 15% | ? | 7% | 5.9%
CC1(C)CC(=O)C2=C(C1)OC(N)=C(C#N)C2c1ccc(OC(=O)N2CCOCC2)cc1 (configuration not stated) | -3% | 4% | ? | -13% | 16% | 18% | 0% | 2.5%
Cn1cccc1CC(=O)N/N=C/C(Cl)=C/c1ccccc1 | 17% | ? | 13% | 8% | -26% | ? | ? | -8.8%
COc1ccc(CN(C(=O)c2ccco2)c2ccc(Br)cc2)cc1OC | ? | 10% | -19% | -9% | 15% | 1%[46.1 µM] | ? | -7.8%
COc1cc(OC)cc(C(=O)Nc2cc3c(cc2N2CCOCC2)n(C)c(=O)n3C)c1 | -29% | · | 8%[46.1 µM] | · | · | -7%[46.1 µM] | 11% | -0.3%
Cc1ccc(-c2cc(C(=O)N(C)Cc3cnn(C)c3C)c3cc(Br)ccc3n2)cc1 | -8% | -25% | ? | -9% | 0% | 8.9µM* | ? | -5.9%
Cc1ccc(NC(=O)Nc2nnc(N3CCCC3)s2)cc1C | 16% | · | -31%[46.1 µM] | · | · | -25%[46.1 µM] | ? | -9.9%
CCn1c(Cc2cccs2)nnc1SCC(=O)NC1CC1 | -11% | -3% | ? | -2% | 13% | 14%[46.1 µM] | · | ·
Cc1ccc(OC(=O)N2CCOCC2)cc1 | 8% | -1% | 11% | -4% | 11% | ? | 10% | 9.3%
COc1ccc(NC(=O)C2CCCN2S(=O)(=O)c2cccc3cccnc23)cc1OC (configuration not stated) | 1%&4% | -7% | · | -8% | 5% | 0%&0%[46.1 µM] | -1% | -3.5%
CCOc1ccccc1C1CC(c2ccc(Br)cc2)Nc2nc(N)nn21 (configuration not stated) | ? | -7% | ? | 7% | -8% | ? | 6% | -4.5%

# Compound activity: PubChem, National Center for Advancing Translational Sciences (NCATS)
